Bioassay records deposited in PubChem by SRMLSC.
H5N1 antiviral = MDCK cell protection from H5N1 avian flu; cytopathic effect, luminescence, 72 h; stronger effect = higher value; no value below 0 was filed and about half of the inactive calls have no number; reference of the scale not given here; inhibition, % at 50 µM; 0.07% of 96,000 active; AID 740; in the data active means inhibition above about 25%
Numbers without * were called inactive; i = inactive.

SMILES	H5N1 antiviral
COc1cccc(CNc2ccc(Br)cn2)c1O	i
Oc1ccc(CN2CCCc3ccccc32)c2cccnc12	0.1
CS(=O)(=O)N1CCCC(C(=O)NCCCN2CCC(Cc3ccccc3)CC2)C1 (stereo unspecified)	0.4
CCOc1ccc(Nc2c3c(nc4ncnn24)CC(C)CC3)cc1 (stereo unspecified)	3.3
Cc1ccc(C(=O)NNc2cc(N3CCCC3)nc(N3CCCC3)n2)cc1	i
O=C(Cn1c(C(F)(F)F)nc2ccccc21)c1ccc(Br)cc1	i
O=C(NC1CCCC1)C(c1ccco1)N(Cc1ccccc1)C(=O)c1csnn1 (stereo unspecified)	3.5
COc1ccc(CC(=O)NC2=NCCS2)cc1	i
Cc1ccc(CNC(=O)C2CCCN(C(=O)N(C)C)C2)cc1 (stereo unspecified)	i
Cc1ccc(-c2ccc(CCC(=O)O)n2CC2CCCO2)cc1 (stereo unspecified)	i
COc1cc(NC(=O)CSc2nnc3n2C(C)(C)Cc2ccccc2-3)cc(OC)c1	i
CCOc1cc(S(=O)(=O)NC2CCCC2)ccc1Cl	i
Cc1cccc(C(=O)Nc2cccc(-c3cnc4ccccc4n3)c2)c1	0.2
COc1ccc(NC(=O)Nc2ccc3nccnc3c2)cc1	i
O=C(c1ccco1)N(Cc1cccs1)C1CCS(=O)(=O)C1 (stereo unspecified)	0.7
O=C(OCN1C(=O)c2ccccc2C1=O)C1CCCCC1	i
O=S1(=O)NC(=NC2CCCCCC2)c2ccccc21	0.3
Cc1ccc(/C=C/C(=O)N2CCc3ccccc3C2)cc1	0.8
CN(C)CCN(Cc1ccccc1)c1ccnc(N(C)C)c1C#N	i
CCCCn1c(=O)c(C(=O)Nc2cnccn2)c(O)c2ccccc21	1.7
CCOC(=O)C1C(c2ccc3c(c2)OCO3)NC(=O)NC1(O)C(F)(F)F (stereo unspecified)	i
O=C1c2cccc3c([N+](=O)[O-])ccc(c23)C(=O)N1c1ccccn1	i
CC1Cc2nc(SCC(=O)NCc3ccco3)n(Cc3ccccc3)c(=O)c2S1 (stereo unspecified)	0.1
CCn1nc2cc(C(=O)NCCc3cccs3)ccc2c1OC	0.3
Cn1c(SCC(=O)Nc2nccs2)nnc1-c1ccncc1	0.7
CCOC(=O)c1c(C)n(C)c2ccc(OC)c(NC(=O)CN3CCCCC3)c12	i
COCCCn1c(N)c(C(=O)OC(C)COC)c2nc3ccccc3nc21 (stereo unspecified)	i
COc1ccc(C2=Nn3c(nnc3-c3ccccc3OC)SC2)cc1OC	4.6
COc1ccc(-c2cn3cccnc3n2)cc1NC(=O)CC(C)C	i
Cc1c(Cl)cccc1NC(=O)c1cccc(OC(F)F)c1	0.6
O=C1C2C(c3ccccc3)C=CC(c3ccccc3)C2C(=O)N1C1CCCCC1 (stereo unspecified)	i
Cc1ccccc1C(=O)Nc1ccc(N2CCOCC2)nc1	i
Cc1cccc(CSc2cccc3cccnc23)c1	1.4
Cc1nc2cccc(C(=O)NC3CCCCC3)c2o1	0.9
COC(=O)c1ccc(-n2cncn2)c(F)c1	i
COc1cc(NC(=O)c2cccs2)c(C(=O)OCC(=O)NC(=O)NC(C)(C)C)cc1OC	0.9
O=C(CSc1nc2ccccc2s1)N1c2ccccc2Sc2ccccc21	0.3
COc1cc(-c2nn3c(-c4cccc(C)c4)nnc3s2)cc(OC)c1OC	1.4
CCn1cc(C(=O)NCc2cccs2)c(=O)c2ccc(C)nc21	i
COc1cc2c(cc1OC)C(COc1ccc3c(C)cc(=O)oc3c1)N(C(=O)c1ccco1)CC2 (stereo unspecified)	2.1
CS(=O)(=O)Nc1ccc2c(c1)C(=O)OC2	i
COc1cccc(-c2noc(-c3cccs3)n2)c1	i
O=C(Cn1cnc2cc(Cl)ccc2c1=O)Nc1ccc2c(c1)OCO2	i
Cc1ccc(C)c(Cn2nnc3c(=O)[nH]c(C(=O)NCc4ccco4)nc32)c1	i
N#CCCn1c(-c2nonc2NC(=O)c2ccccc2Cl)nc2ccccc21	1.3
O=C1c2oc3ccccc3c(=O)c2C(c2cccc(O)c2)N1c1ccccn1 (stereo unspecified)	0.6
COCCCn1c(SCC(N)=O)nnc1-c1ccccc1	0.6
Cn1c(=O)c2c(nc(N3CCOCC3)n2CCSc2ncccn2)n(C)c1=O	1.9
COc1cccc(/C=N\NC(=O)C2C(=O)NCC2c2ccccc2)c1O (stereo unspecified)	i
Cc1c(NC(=O)CSc2nccn2C)c(=O)n(-c2ccccc2)n1C	i
Cc1ccccc1C(=O)NC(=S)Nc1ccc(S(=O)(=O)N2CCN(C)CC2)cc1	i
O=C(CCCSc1nnnn1-c1ccccc1)c1ccc(F)cc1	i
Cc1cccc2cc(CN(Cc3ccccc3)C(=O)N(C)C)c(=O)[nH]c12	i
CCOc1ncccc1C(=O)OCc1cn2cc(Cl)ccc2n1	1.1
O=C(Oc1ccccc1)c1cccc(COC(=O)c2cnccn2)c1	0.1
N#Cc1c(NC(=O)c2cccnc2)sc2c1CCC2	0.9
CCOc1cc(-c2c(C#N)c(N)nc3c2CCCC3C)ccc1O (stereo unspecified)	1.2
O=C(c1ccc(Cl)cc1)c1coc2ccc(O)cc12	i
CC(C)OC(=O)C1=C(N)N2C(=O)CSC2=C(C(=O)OC(C)C)C1	0.0
CCNC(=O)CN1C(=O)NC2(CCCCCC2)C1=O	i

Continued.
SMILES	H5N1 antiviral
CCOC(=O)N1CCN(C(=O)Nc2ccc(Cl)cc2)CC1	i
O=C(CN1CCN(S(=O)(=O)c2ccc(Cl)s2)CC1)NCc1ccc(Cl)cc1	0.1
O=C(Nc1cccn(Cc2c(Cl)cccc2Cl)c1=O)c1ccc(Cl)cc1Cl	i
N[C@@H](Cc1c[nH]c2ccccc12)c1nnc(SCc2ccccc2)o1	i
C=CCNC(=O)C1CC(=O)N(c2ccc(OCC(=O)Nc3ccc(Cl)c(C(F)(F)F)c3)cc2)C1 (stereo unspecified)	i
CC1=C(C(=O)OCc2ccc3c(c2)OCO3)C(c2ccccc2OCc2ccccc2)NC(=O)N1 (stereo unspecified)	i
COc1ccc(N(CC(=O)Nc2ccc(S(=O)(=O)N3CCCC3)cc2)S(C)(=O)=O)cc1OC	0.5
COc1ccc(NC(=O)CC(Cc2ccccc2)C(=O)O)cc1 (stereo unspecified)	0.3
Cc1ccc(C2CC(C(F)F)n3ncc(C(=O)Nc4cnn(Cc5ccccc5C)c4)c3N2)cc1 (stereo unspecified)	i
CNC(=O)N(C1=NCC(C)S1)c1ccc(F)cc1F (stereo unspecified)	i
CC(C)=CCCC(C)CN1CCC(O)CC1 (stereo unspecified)	i
Cc1cc(OCc2ccc(F)cc2)nc(-c2ccccc2O)n1	0.4
CC(CC(=O)NC1CCSC1=O)c1ccccc1 (stereo unspecified)	0.7
Nc1sc2c(c1C(=O)NC1CCS(=O)(=O)C1)CCC2 (stereo unspecified)	i
COC(=O)c1c(-c2ccc(Br)cc2)csc1NC(=O)Cc1ccc(OC)c(OC)c1	i
COc1cccc(-c2nnc(NC(=O)c3ccc(S(=O)(=O)N(CC(C)C)CC(C)C)cc3)o2)c1	4.1
COc1cccc(NC(=O)CSc2ccc3nnc(-c4ccncc4)n3n2)c1	2.1
COc1cccc(N(C(=O)c2ccco2)C(C(=O)NC2CCCC2)c2ccc(N(C)C)cc2)c1 (stereo unspecified)	i
CC(=O)c1cccc(NC(=O)c2onc(C)c2Cl)c1	i
Cc1cc(C)nc(SCC(=O)Nc2ccc(S(=O)(=O)Nc3nccs3)cc2)n1	1.0
COc1ccc(NC(=O)CC2SC(=Nc3ccccc3)NC2=O)cc1 (stereo unspecified)	i
O=c1c2c3n(c(=O)nc2[nH]n1-c1ccccc1)CCCCC3	i
Cc1nn(C)cc1C(=O)NNC(=S)Nc1ccccc1	1.9
Cc1ccc(NC(=S)N/C(=N/S(=O)(=O)c2ccccc2)c2ccccc2)cc1	i
COc1ccccc1C(=O)N1CCCC1(C#N)c1ccccc1 (stereo unspecified)	1.2
COc1cc(C)c(C)cc1S(=O)(=O)N1CCCCC1c1cccnc1 (stereo unspecified)	0.9
COc1cc2nc(CN(CCC(C)C)Cc3nc4cc(OC)c(OC)cc4c(=O)[nH]3)[nH]c(=O)c2cc1OC	0.4
O=C(Nc1cccc(O)c1)c1ccccc1	i
O=C(CC1C(=O)NCCN1C(=O)Nc1ccccc1)Nc1cccc(C(F)(F)F)c1 (stereo unspecified)	3.0
Cc1ccc(NC(=O)CC(O)(C(F)(F)F)C(F)(F)F)c(Br)c1	0.7
Cc1ccc(N2C(=O)CC(N(O)C3CC(=O)N(c4ccc(C)cc4)C3=O)C2=O)cc1 (stereo unspecified)	0.3
CCc1nc(SCC(=O)NNC(=O)C2CCCCC2)c2ccccc2n1	i
COC(=O)CSC1=C(C#N)C(c2ccc(C)cc2)C2=C(CCCC2=O)N1 (stereo unspecified)	0.7
O=C(COC(=O)c1cccc(S(=O)(=O)N2CCOCC2)c1)Nc1ccc2c(c1)OCO2	i
Cc1ccc(Cl)cc1Nc1nc(-c2sc(NC(=O)C(C)(C)C)nc2C)cs1	0.8
COc1ccc(Nc2nc(-c3cccs3)cs2)cc1	0.8
O=C(CN(C(=O)C1COc2ccccc2O1)c1ccccc1)NCC1CCCO1 (stereo unspecified)	0.8
CCN1CCN(c2cc(C)c3cc(NC(=O)c4ccc(Br)o4)ccc3n2)CC1	i
COc1cccc(-n2nnnc2SCC(=O)Nc2cccc(NC(C)=O)c2)c1	0.8
O=C(NCCOc1ccccc1)c1ncn[nH]1	0.8
COC(=O)c1c(NC(=O)CN2CCOCC2)sc2c1CCC(C)C2 (stereo unspecified)	i
COC(=O)C(C(=O)OC)C(C[N+](=O)[O-])c1ccc(OC)c(OC)c1 (stereo unspecified)	i
COc1ccc2[nH]cc(C3N4CC5(C)CN3CC(C)(C4)C5=O)c2c1 (stereo unspecified)	i
NS(=O)(=O)c1cccnc1Nc1cccc(Cl)c1Cl	i
C=CCn1c(CCNC(=O)c2cccs2)nnc1SCC(=O)Nc1cccc(Cl)c1C	0.2

4 entries from above, with bars between the fields:
SMILES | H5N1 antiviral
CCOc1cc(S(=O)(=O)NC2CCCC2)ccc1Cl | i
CCOc1ccc(Nc2c3c(nc4ncnn24)CC(C)CC3)cc1 (stereo unspecified) | 3.3
O=C1C2C(c3ccccc3)C=CC(c3ccccc3)C2C(=O)N1C1CCCCC1 (stereo unspecified) | i
C=CCNC(=O)C1CC(=O)N(c2ccc(OCC(=O)Nc3ccc(Cl)c(C(F)(F)F)c3)cc2)C1 (stereo unspecified) | i

(listing goes on)
SMILES	H5N1 antiviral
CCOC(=O)N1CCC(NC(=O)C2CCCN(S(C)(=O)=O)C2)CC1 (stereo unspecified)	i
O=C(CSC1=Nc2ccccc2C2=NC(CC(=O)NCc3ccco3)C(=O)N12)NCc1ccco1 (stereo unspecified)	1.0
CCOC(=O)c1cc(C#N)c(SCC(=O)c2cc(C#N)c(SC)nc2C)[nH]c1=O	0.3
O=C1c2ccccc2C(=O)N1CCc1ccccn1	1.6
Cc1ccc([N+](=O)[O-])cc1NC1OC(CO)C(O)C1O (stereo unspecified)	i
CCN1C(=O)/C(=C\c2cccs2)C(C(=O)OC)=C1C	0.4
COc1ccc(C(C(=O)NC2CCCCC2)N(C(=O)c2sc(C)nc2C)c2ccccc2C)cc1 (stereo unspecified)	i
CC(C)CC12CN3CCN(CC(C3)C1O)C2 (stereo unspecified)	0.6
CCCC(=O)n1nc(-c2ccco2)nc1SCc1ccccc1	i
CCOC(=O)c1ccc(NC(=O)c2ccc3c(c2)OCO3)cc1	i
CCn1c(N)c(C(=O)NCc2cccnc2)sc1=S	0.9
CCc1ccc2c(c1)C(c1ccc([N+](=O)[O-])cc1)=NNC(c1ccc(F)cc1)=N2	i
Cc1cc(C(=O)C(=O)NC(C)C)c(C)n1-c1ccc([N+](=O)[O-])cc1	0.5
COc1ccc(C(O)c2nccn2Cc2ccccc2)cc1 (stereo unspecified)	0.4
COc1cc(NC(=O)c2cccc3c2C(=O)N(Cc2cccnc2)C3)cc(OC)c1OC	i
O=C(O)CSCc1c(F)cccc1Cl	i
COc1ccc(CCN2CCCn3c2nc2c3c(=O)n(Cc3ccccc3F)c(=O)n2C)cc1OC	1.8
COc1ccccc1/C=C/C=N/n1c(COc2ccccc2)n[nH]c1=S	1.4
CC(C)C(=O)Nc1ccc(C(=O)NNC(=O)C(c2ccccc2)c2ccccc2)cc1	i
O=C(CSc1nnc(-c2ccco2)n1-c1ccccc1)NCc1ccc2c(c1)OCO2	1.4
CCOC(=O)C1CCCN(C(=O)CCc2ccccc2)C1 (stereo unspecified)	i
O=C1CNCc2[nH]c3ccccc3c2N1c1ccccc1	i
CCOC(=O)c1sc(NC(=O)CN2C(=O)c3cccc4cccc(c34)C2=O)nc1C	i
O=C(COc1ccc2ccccc2c1Br)N1CCN(c2ccccn2)CC1	0.3

Structural class, those above containing an aryl thioether with sulfur outside any ring (18)
SMILES	H5N1 antiviral
COc1cc(NC(=O)CSc2nnc3n2C(C)(C)Cc2ccccc2-3)cc(OC)c1	i
CC1Cc2nc(SCC(=O)NCc3ccco3)n(Cc3ccccc3)c(=O)c2S1 (stereo unspecified)	0.1
Cn1c(SCC(=O)Nc2nccs2)nnc1-c1ccncc1	0.7
Cc1cccc(CSc2cccc3cccnc23)c1	1.4
O=C(CSc1nc2ccccc2s1)N1c2ccccc2Sc2ccccc21	0.3
COCCCn1c(SCC(N)=O)nnc1-c1ccccc1	0.6
Cn1c(=O)c2c(nc(N3CCOCC3)n2CCSc2ncccn2)n(C)c1=O	1.9
Cc1c(NC(=O)CSc2nccn2C)c(=O)n(-c2ccccc2)n1C	i
O=C(CCCSc1nnnn1-c1ccccc1)c1ccc(F)cc1	i
N[C@@H](Cc1c[nH]c2ccccc12)c1nnc(SCc2ccccc2)o1	i
COc1cccc(NC(=O)CSc2ccc3nnc(-c4ccncc4)n3n2)c1	2.1
Cc1cc(C)nc(SCC(=O)Nc2ccc(S(=O)(=O)Nc3nccs3)cc2)n1	1.0
CCc1nc(SCC(=O)NNC(=O)C2CCCCC2)c2ccccc2n1	i
COc1cccc(-n2nnnc2SCC(=O)Nc2cccc(NC(C)=O)c2)c1	0.8
C=CCn1c(CCNC(=O)c2cccs2)nnc1SCC(=O)Nc1cccc(Cl)c1C	0.2
CCOC(=O)c1cc(C#N)c(SCC(=O)c2cc(C#N)c(SC)nc2C)[nH]c1=O	0.3
CCCC(=O)n1nc(-c2ccco2)nc1SCc1ccccc1	i
O=C(CSc1nnc(-c2ccco2)n1-c1ccccc1)NCc1ccc2c(c1)OCO2	1.4

These rows are one share of the data; count on the stated rates, not on these rows.
